# Cruzain Triton: qHTS Assay for Promiscuous and Specific Inhibitors of Cruzain (with detergent); Cruzipain (Trypanosoma cruzi), P25779; purified cruzain, Z-FR-AMC fluorescence, 0.01% Triton; Potency, µM, for inactives: max response, negative = inhibition, actives largely listed as inhibitors; 0.43% of 200,000 active; AID 1478, 2009; active = well fitted curve in the direction sought with a large enough effect; inconclusive = small, poorly fitted or top-dose-only effect, or another doubt; inactive = no such curve, though single readings can be large; an effect the other way counts as inactive or inconclusive;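 also: plate controls were neutral wells for no effect and buffer without enzyme for full effect; nearly all actives have a fitted effect of over 40% in size; top concentration of the series not given in the record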
# Target sequence (P25779 123-467 limits assumed): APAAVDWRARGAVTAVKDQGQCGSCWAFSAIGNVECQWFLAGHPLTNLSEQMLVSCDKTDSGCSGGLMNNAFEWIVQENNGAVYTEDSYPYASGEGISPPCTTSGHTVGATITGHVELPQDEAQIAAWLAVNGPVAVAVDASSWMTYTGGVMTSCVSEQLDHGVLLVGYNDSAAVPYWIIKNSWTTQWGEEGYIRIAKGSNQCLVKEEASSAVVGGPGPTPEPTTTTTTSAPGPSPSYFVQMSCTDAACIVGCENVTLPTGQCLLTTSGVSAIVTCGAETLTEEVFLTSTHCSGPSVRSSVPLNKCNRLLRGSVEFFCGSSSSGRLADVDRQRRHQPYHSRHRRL
#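 Purified cruzain (1.5 nM final) was preincubated with compounds for 15 min at room temperature in 100 mM sodium acetate pH 5.5, 5 mM DTT, 0.01% Triton X-100. Reaction started with 2 uM Z-FR-AMC; AMC fluorescence change over 60 s gave activity.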
# StopGo reporter: High Throughput Screening for Foot and Mouth Disease Virus Antivirals | human cells with a luciferase reporter of 2A StopGo recoding; control for the full effect not named in the record | Potency, µM (titrated, usually from 57.9 µM), for the others: at the top dose signal change, negative = less light | 1.2% of 410,000 active; active = well fitted falling curve with a large enough effect; inconclusive = small, poorly fitted or top-dose-only effect; inactive = no such curve, though single readings can be large or run the other way; tested in HEK293T cells; also: % is scaled to controls: 0 for no effect and ±100 for the full control effect; nearly all actives have a fitted effect of over 45% in size; luciferase light after 4 h
# Lassa entry inh: qHTS for Inhibitors of binding or entry into cells for Lassa Virus; 1.2% of 300,000 active; Potency, µM (highest dose often 37.9 µM), for the others: at the highest dose activity change, negative = inhibition, usual class: inhibitors; Lassa virus pseudotype entry inhibition, cell reporter; control for the full effect not named in the record; active means well fitted inhibition curve with a large enough effect; inconclusive means small, poorly fitted or top-dose-only effect, or effect the other way; inactive means flat fitted curve, though single readings scatter; tested in HEK293 cells; also: % is scaled to controls: 0 for no effect and ±100 for the full control effect; nearly all actives have a fitted effect of over 50% in size; luciferase read-out
# SARS PLpro yeast: qHTS of Yeast-based Assay for SARS-CoV PLP; S. cerevisiae expressing SARS-CoV PLpro, growth rescue; control for the full effect not named in the record; Potency, µM (top dose mostly 32.9 µM), for the others: top-dose activity, positive = growth rescue; 0.19% of 330,000 active; also: 0% is about no effect; nearly all actives have a fitted effect of over 55% in size; growth read by luminescence after 48 h
# MARV entry inh: qHTS for inhibitors of binding or entry into cells for Marburg Virus. AID 540276, 2011. Marburg virus pseudotyped entry inhibition, cell reporter; control for the full effect not named in the record; about a third of the inactives were read at about 46 µM. 1.8% of 300,000 active. Potency, µM (top dose mostly 37.8 µM), for the others: at the highest dose activity change, negative = inhibition, hits mostly inhibitors; active = well fitted inhibition curve with a large enough effect; inconclusive = small, poorly fitted or top-dose-only effect, or effect the other way; inactive = flat fitted curve, though single readings scatter; tested in HEK293 cells; about a fifth of its hits are not listed in these tables; also: % is scaled to controls: 0 for no effect and ±100 for the full control effect; luciferase read-out
# RE007 growth inh: qHTS Assay for Inhibitors of the HIV-1 protein Vpr; S. pombe RE007 Vpr strain, BacTiter-Glo ATP luminescence, 24 h; control for the full effect not named in the record; Potency, µM (series often up to 92.2 µM), for inactives: at the highest dose activity change, negative = less growth; 0.21% of 360,000 active; active = well fitted falling curve with a large enough effect; inconclusive = small, poorly fitted or top-dose-only effect; inactive = no such curve, though single readings can be large or run the other way;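 also: % is scaled to controls: 0 for no effect and ±100 for the full control effect; nearly all actives have a fitted effect of over 50% in size; the assay follows cell death caused by Vpr and the record does not say whether a fall means rescue or toxicity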
#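 Fission yeast RE007 carrying one integrated HIV-1 vpr copy, seeded at OD 0.01 in PMG+AL medium with 23 nL pinned compound. Grown 24 h at 30 degrees; viability read by BacTiter-Glo luminescence after 5 min.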
# NS1 function inh: qHTS Assay for Inhibitors of Influenza NS1 Protein Function; S. cerevisiae slowed by influenza A NS1, growth recovery by OD600; AID 2326, 2010; Potency, µM (series often up to 46.1 µM), for the others: at the top dose activity, positive = more growth; 0.4% of 270,000 active; also: actives are rising curves; nearly all actives have a fitted effect of over 50% in size
#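 A cell-based growth assay was used: compounds that relieve NS1-induced slow growth of budding yeast raise OD600. Assay medium was yeast nitrogen base with ammonium sulphate and -URA supplement, pH 6.0, with 2% galactose.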
# Cruzain inh noDet: qHTS Assay for Promiscuous and Specific Inhibitors of Cruzain (without detergent); AID 1476, 2009; 2.3% of 200,000 active; Cruzipain (Trypanosoma cruzi), P25779; Potency, µM, without a hit: max response, negative = inhibition, hits mostly inhibitors; purified cruzain, Z-FR-AMC fluorescence, no detergent; active = well fitted curve in the direction sought with a large enough effect; inconclusive = small, poorly fitted or top-dose-only effect, or another doubt; inactive = no such curve, though single readings can be large; an effect the other way counts as inactive or inconclusive;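 also: plate controls were enzyme without inhibitor for no effect and buffer without enzyme for full effect; nearly all actives have a fitted effect of over 40% in size; top concentration of the series not given in the record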
#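 Purified cruzain at 1.5 nM, pre-incubated 15 min with compound at room temperature in 100 mM sodium acetate pH 5.5, 5 mM DTT, 0.00005% Triton X-100. Reaction started with 2 uM Z-FR-AMC; AMC fluorescence increase over 60 s gives rate.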
# Active calls of the source: *; ? = inconclusive; / = not tested or not shown; [ ] = another dose, or the depositor's remark. Unless noted, calls follow the shape of the dose curve; as a rule, active means well fitted rising curve with a large enough effect; inconclusive means small, poorly fitted or top-dose-only effect; inactive means no such curve, though single readings can be large or run the other way. Potency is read from the fitted curve at half-maximal effect.
canonical_smiles,Cruzain Triton,StopGo reporter,Lassa entry inh,SARS PLpro yeast,MARV entry inh,RE007 growth inh,NS1 function inh,Cruzain inh noDet
CCOc1ccccc1C(=O)NCC(=O)NC(C)c1ccc(-n2ccnc2)cc1 (stereo unspecified),/,?,-26%,-6%,-21%[46.1 µM],9%,/,/
Cc1c(C(=O)NC(C)c2ccccc2)c(-c2ccccc2)nn1-c1ccccc1 (stereo unspecified),5.8%,0%,13%,-11%,?,0%,2%,10%
CCN(c1ccccc1)S(=O)(=O)c1cccc(C(=O)NCc2ccccn2)c1,/,0%,-26%[46.1 µM],-5%,-2%,-6%,/,/
COCCCNC(=O)c1cc(-c2cccnc2)nc2ccc(S(=O)(=O)N3CCC(C)CC3)cc12,5.3%,17%,20%[46.1 µM],/,/,/,/,-8%
CCN(CC(=O)Nc1ccccc1OC)C(=O)c1cc(S(=O)(=O)N2CCCCCC2)ccc1OC,/,-6%,15%,7%,0%,-4%,/,/
CCOC(=O)c1sc(N/N=C/c2ccc(N(C)C)cc2)nc1C,/,2%,/,-1%,/,-7%,13%,/
COCCNC(=O)CSc1ncnc2sccc12,4.3%,3%,23%,-7%,?,18%,4%,-11%
CCN(CC(=O)Nc1ccc(Cl)c(S(=O)(=O)N(C)C)c1)CC(=O)NC(C)C,/,-5%,-17%[46.1 µM],-1%,5%[46.1 µM],8%,/,/
Cc1ccccc1C(=O)Nc1nnc(S(=O)(=O)N2c3ccccc3CC2C)s1 (stereo unspecified),-0.5%,-16%,-2%[46.1 µM],/,/,/,/,4%
O=C(O)COc1ccccc1/C=C1\SC(=Nc2ccc(F)cc2)N(c2ccc(F)cc2)C1=O,/,-15%,/,0%,/,3%,13%,/
CCOC(=O)C1(Cc2ccc(OC)cc2)CCN(C(=O)c2csc(C)n2)CC1,/,13%,?,0%,23%[46.1 µM],75%,0%,/
O=C(Cc1ccccc1)NC(=S)Nc1ccc(OC(F)F)cc1,/,22%,30%[46.1 µM],-19%,-2%[46.1 µM],?,-3%,/
COCCCNC(=O)C1CCCN(S(C)(=O)=O)C1 (stereo unspecified),-6.4%,-5%,3%,8%,20%,3%,11%,-5%
CCOc1ccc(OCC)c(NC(=O)C2CCCN(S(=O)(=O)c3c(C)noc3C)C2)c1 (stereo unspecified),-5.4%,-11%,3%,-7%,21%,51%,8%,3%
Cc1c(C(=O)NCc2ccc(Cl)cc2)sc2nc3n(c(=O)c12)CCC3,-1.4%,-2%,12%[46.1 µM],/,/,/,/,7%
Cc1ccc2c(c1)cc(C(=O)N1CCN(c3ccccn3)CC1)n2C,/,-28%,?,0%,8%,1%,-10%,/
Nc1nc(SCC(=O)Nc2ccccc2Oc2ccccc2)n[nH]1,-4.3%,-17%,-1%,0%,?,/,-6%,-4%
CCn1nc(C)c(Oc2ccccc2O)c1C,0.4%,-26%,-28%,8%,-1%,5%,-4%,-7%
Cc1ccc(Cn2nnc3c(=O)[nH]c(C4CCN(S(=O)(=O)c5ccc(S(=O)(=O)NC6CC6)cc5)CC4)nc32)cc1,/,-3%,/,1%,-28%[46.1 µM],14%,?,/
Cc1cc(C)n2c(SCC(=O)Nc3ccc(Cl)cn3)nnc2n1,6.1%,/,/,2%,-1%,/,3%,-29%
CCOc1ccc2nc(Cl)c(CN(C(C)=O)C3CCCCC3)cc2c1,/,-17%,-3%,0%,?,-4%,-4%,/
CN(CC(=O)NCCc1ccc(S(N)(=O)=O)cc1)CC(=O)Nc1ccc(Cl)cc1,/,-9%,10%[46.1 µM],5%,13%,3%,/,/
CS(=O)(=O)N1CCN(C(=O)NC23CC4CC(CC(C4)C2)C3)CC1,5.0%,-24%,8%,1%,13%,14%,0%,-4%
O=[N+]([O-])c1cc2nc(O)c(O)nc2cc1[N+](=O)[O-],0.5%,0%,/,/,?,/,/,-4%
COc1cccc(-c2nnc(SCCOc3ccc4c(C)cc(=O)oc4c3)o2)c1,-5.2%,-7%,11%,0%,14%,-10%,-1%,2%
CCN(CC)c1ccc(N=Cc2c(O)[nH]c(=O)[nH]c2=O)cc1,/,35%[activator],/,-3%,/,11%,-5%,/
CCCN(Cc1cc2cccc(C)c2[nH]c1=O)C(=O)c1cccc(OC)c1,/,-10%,-6%,/,-25%,5%,/,/
O=S(=O)(Nc1cccc(-c2nnco2)c1)c1ccc(Cl)cc1,/,14%,/,0%,/,9%,4%,/
Cc1ccc(C)c(S(=O)(=O)N2CCCOC2CNC(=O)C(=O)NCCc2ccco2)c1 (stereo unspecified),/,-19%,-1%,-4%,-23%,24%,0%,/
CS(=O)(=O)N1CCc2cc(C(=O)Nc3cccc(F)c3)ccc21,-2.9%,19%,6%[46.1 µM],/,?,/,/,-7%
CCCCc1c(O)nc(SCC(=O)O)[nH]c1=O,/,8%,9%,0%,-2%[46.1 µM],6%,4%,/
COc1ccccc1/C=C/C=N/N1CCN(Cc2ccc(Cl)cc2)CC1,0.5%,?,?,-9%,-16%,7%,-48%,7%
Cc1cc(C(=O)N/N=C/c2c3ccccc3cc3ccccc23)n[nH]1,/,-24%,?,-3%,?,-18%,-3%,/
COc1ccc(N(C(=O)CNC(=O)c2ccco2)C(C(=O)NCC2CCCO2)c2ccccc2)cc1Cl (stereo unspecified),/,-17%,?,3%,-3%[46.1 µM],-4%,-3%,/
Cc1ccc(N2CC(C(=O)Nc3nnc(SCC(=O)Nc4cc(C)on4)s3)CC2=O)cc1 (stereo unspecified),0.3%,-13%,-4%,13%,6%,14%,14%,7.9µM*
COc1cccc(C(=O)Nc2ccc(C(=O)c3ccncc3)cc2)c1,/,?,?,-5%,-11%[46.1 µM],14%,-4%,/
O=[N+]([O-])c1ccc(C(O)CSC(=S)N2CCCCC2)cc1 (stereo unspecified),/,20%,-11%[46.1 µM],-2%,?,4%,3%,/
O=C(c1ccccc1NS(=O)(=O)c1cccc([N+](=O)[O-])c1)N1CCOCC1,4.1%,19%,9%,8%,5%,6%,-1%,-5%
CC(C)OCCCNC(=O)CCCN1C(=O)CCn2nc(-c3cccn3C)cc21,0.2%,-3%,-2%[46.1 µM],/,/,/,/,?
CN(C)c1ccc(/C=N/NC(=O)CN2CCN(c3ccc(F)cc3)CC2)cc1,-1.4%,/,8%,29%,-7%,/,-6%,?
Cc1ccc(C(=O)Nc2nccc(C)n2)cc1,/,58%[activator],-15%,-1%,-4%,-14%,8%,/
CCn1c(SCC(=O)N2CCN(c3ccccc3)CC2)nnc1-c1ccncc1,0.5%,/,/,?,/,/,-2%,-13%
Cc1ccc(S(=O)(=O)c2nnn3c2nc(NC(C)C)c2cc(Cl)ccc23)cc1C,0.7%,16%,/,/,-7%[46.1 µM],/,/,-13%
CCOC(=O)c1c(C)[nH]c(C(=O)C(C)OC(=O)c2cnc(C)cn2)c1C (stereo unspecified),/,-39%,12%,-1%,7%,0%,/,/
Cc1[nH]c(C)c(S(=O)(=O)N2CCN(c3cccc(Cl)c3)CC2)c1C(=O)N1CCCC1,/,10%,/,-2%,/,4%,6%,/
Fc1c(F)c(F)c(CSc2nc3ccccc3[nH]2)c(F)c1F,0.4%,31%[activator],20%,-7%,9%,?,-3%,-9%
O=C(COC(=O)CNC(=O)C1CCCCC1)Nc1ccc2ccccc2c1,4.5µM*,32%[activator],15%,-15%,24%,4%,-58%,7.9µM*
Clc1ccc(-c2nnc3n2CCCCC3)cc1,0.7%,11%,2%,12%,?,21%,-10%,-7%
CCOc1ccccc1NC(=O)C(Cc1ccccc1)NS(=O)(=O)c1ccc(Br)s1 (stereo unspecified),6.3%,23%,-22%[46.1 µM],/,?,/,/,5%
O=C(/C=C/c1ccccc1)N1CCN(Cc2cc(=O)n3nc(-c4ccccc4Cl)sc3n2)CC1,1.4%,-24%,-6%[46.1 µM],/,/,/,/,-11%
O=c1c2ccccc2cnn1Cc1n[nH]c(=S)n1-c1ccc(F)c(Cl)c1,/,-7%,?,-1%,-5%[46.1 µM],-8%,/,/
Cc1cc(-c2ccccc2)n(-c2ccc(C(N)=O)cc2)n1,0.1%,0%,-2%,20%,?,-8%,8%,3%
CCOCCCNC(=O)C1CCN(S(=O)(=O)N2CCCC2)CC1,/,-16%,-1%,1%,3%,-10%,/,/
CN(/N=C/c1ccc(O)cc1O)c1ncc(C(F)(F)F)cc1Cl,/,-23%,/,-3%,/,?,-6%,/
Cc1cnc(C(=O)OCC(=O)Nc2cccc(S(=O)(=O)N3CCCCC3)c2)cn1,4.4%,-12%,-5%,13%,-1%,1%,-6%,-11%
COc1ccc(-c2cc(-c3nnc(COC(=O)CC4CC5CCC4C5)o3)c3ccccc3n2)cc1OC (stereo unspecified),-3.4%,-29%,0%,-14%,?,5%,10%,8%
O=C(CN1CCN(CC(=O)c2ccc(F)cc2)CC1)Nc1ccccc1Cl,-8.8%,16%,0%,-10%,?,9%,-8%,6%
COc1ccc(-c2cc(C(=O)n3cnc4ccccc43)c3ccccc3n2)cc1,-9.1%,-5%,-15%,-8%,?,-10%,-51%,?
